From PubChem
HNF4A DNA FP: change in binding of human HNF4A to DNA, primary screen, biochemical, fluorescence polarization, FITC-DNA | 1 h | activity change, % at 10 µM | hit rate 0.3% among 360,000 | AID 1224865, 2016; in the data active = activity change above about 30%, passing the limit was not always enough;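 note: controls were the assay level and a saturating level of protein; the project sought stronger binding though the title names inhibitors; some compounds called inactive have numbers as strong as hits; positive values seem to mean higher polarization but the record does not say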
Target sequence (P41235 whole entry, looked up): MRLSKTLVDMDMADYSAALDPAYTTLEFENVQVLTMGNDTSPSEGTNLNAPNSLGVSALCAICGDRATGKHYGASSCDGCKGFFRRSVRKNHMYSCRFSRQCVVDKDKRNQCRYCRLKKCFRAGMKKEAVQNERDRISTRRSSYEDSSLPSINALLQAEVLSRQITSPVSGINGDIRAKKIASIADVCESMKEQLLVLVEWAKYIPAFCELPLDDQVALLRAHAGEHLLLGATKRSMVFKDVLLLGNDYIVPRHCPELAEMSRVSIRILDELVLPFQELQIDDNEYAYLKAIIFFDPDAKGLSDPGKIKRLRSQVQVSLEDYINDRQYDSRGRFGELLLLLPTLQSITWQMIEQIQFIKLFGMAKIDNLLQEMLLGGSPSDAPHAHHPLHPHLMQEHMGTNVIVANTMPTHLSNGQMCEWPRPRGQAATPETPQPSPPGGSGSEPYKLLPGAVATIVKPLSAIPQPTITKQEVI
E coli growth: E. coli growth inhibition, primary screen, OD600; Escherichia coli growth, 23 h; hits give low values; OD600 absorbance (test concentration not listed); hit rate 0.21% among 330,000;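 active = OD600 absorbance below the run mean of sample wells minus 3.6 SD, in any replicate, cut at about 0.56 in these data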;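 note: stock transfer was 300 nL into about 60 µL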
FGF22 binding: binders of human FGF22 protein, primary screen, FGF22 synaptogenesis inhibitor project, biophysical, thermal shift, single point; Fibroblast growth factor 22 (Homo sapiens), Q9HCT0; recombinant FGF22 thermal shift, SYPRO orange fluorescence; percent of sucrose octasulfate shift, DMSO zero; calls only at 9.99 µM; hit rate 1.5% among 340,000;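 active = melting point raised past a set limit in the mean and every replicate; three in four hits are not shown here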
Target sequence (Q9HCT0 whole entry, looked up): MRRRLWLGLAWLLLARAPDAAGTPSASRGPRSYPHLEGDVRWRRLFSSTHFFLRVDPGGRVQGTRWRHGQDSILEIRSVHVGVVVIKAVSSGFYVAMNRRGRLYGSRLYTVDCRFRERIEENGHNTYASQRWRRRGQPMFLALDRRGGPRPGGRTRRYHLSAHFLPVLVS
B2AR ag: beta2AR agonists driving receptor internalization, primary screen, cell-based, FAP fluorogen, flow cytometry; Am2.2-beta2AR cells; reference of the scale not given here; AID 504454, 2011; response, % (test concentration not listed); hit rate 0.43% among 340,000;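 active = response above a set limit, near 3 SD of response in nonfluorescent compounds, cut at about 42% in these data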;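 note: stock transfer was 100 nL into about 11 µL; a reference agonist was the positive control; negative values mostly stem from fluorescent compounds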
LANA-H2B inh: blockers of LANA interaction with H2A/H2B – biochemical, FP readout, HTS, primary screen | AID 2629, 2010 | Protein LANA1 (Human herpesvirus 8 type P (isolate GK18)), Q9QR71 | cell-free LANA-H2A/H2B peptide, fluorescence polarization | inhibition, % (no concentration beside the values) | hit rate 0.6% among 320,000; in the data active = inhibition mostly above about 10%, no sharp cut-off; inactive = mostly below about 6.7%;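 note: stock transfer was 7.5 nL into about 10 µL; 0% = median of vehicle wells and 100% = median of positive control wells; one replicate is shown; the record names a cut of 25% in any replicate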
ALR inh: inhibitors of human ALR sulfhydryl oxidase, primary screen, biochemical, H2O2 detection, HRP-luminol luminescence, single point; purified ALR, DTT oxidation; inhibition, % (concentration not given with the values); hit rate 3.8% among 290,000; FAD-linked sulfhydryl oxidase ALR (Homo sapiens), P55789;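 active = mean and each replicate at 75% or more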;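 note: stock transfer was 7.5 nL into about 7.5 µL; 0% = neutral wells and 100% = wells with inactivated enzyme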
Target sequence (P55789 whole entry, looked up): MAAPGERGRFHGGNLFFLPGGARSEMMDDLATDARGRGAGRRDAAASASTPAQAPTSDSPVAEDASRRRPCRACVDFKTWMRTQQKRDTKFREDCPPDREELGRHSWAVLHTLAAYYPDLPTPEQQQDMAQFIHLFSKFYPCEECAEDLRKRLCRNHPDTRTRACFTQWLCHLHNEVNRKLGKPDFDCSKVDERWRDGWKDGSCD
UCH37 DUB inh: inhibitors of human UCH37 deubiquitinase, primary screen, biochemical, Ub-AMC cleavage, fluorescence. Ubiquitin carboxyl-terminal hydrolase isozyme L5 (Homo sapiens), Q9Y5K5. purified proteasome/UCH37. inhibition, % (concentration not given with the values). hit rate 0.33% among 330,000. AID 588478, 2011;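 active = mean of two replicates above 20%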;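 note: 0% = compound-free wells with enzyme and 100% = wells lacking proteasome; stock transfer was 100 nL into about 20 µL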
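Assay system: Proteasome-bound UCH37. Buffer or medium: pH 7.4 Tris-HCl (50 mM) with ovalbumin, ATP-MgCl2, DTT. Incubation: 30 min preincubation with enzyme, 25 min cleavage at room temperature. Measured by: fluorescence, ex 355 nm, em 460 nm. Read-out basis: percent inhibition. Control set: wells without proteasome as full block, compound-free enzyme plus substrate as uninhibited.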
* marks the source's active call; other numbers are inactive results; i = inactive; · = no result given. Some of the compounds tested; the hit share may differ from the screen's.

SMILES	HNF4A DNA FP	E coli growth	FGF22 binding	B2AR ag	LANA-H2B inh	ALR inh	UCH37 DUB inh
COc1ccc(OC)c(S(=O)(=O)NCc2ccc(N3CCN(C)CC3)cc2)c1	0.3	0.71	i	12	-3.4	-8	0.3
COc1nc(N(C)S(=O)(=O)c2ccc(C)cc2)nc(C)c1Cl	-1.8	0.71	·	3	-0.7	5	-1.3
O=C1C2CC=CCC2C(=O)N1c1n[nH]c(Cc2ccccc2)n1 (centres undefined)	-1.6	0.67	i	-8	1.0	0	0.9
O=C(Cc1nc2ccccc2[nH]1)N/N=C/c1ccccc1	-1.4	·	i	-19	-4.8	1	·
COc1cc(NC(=S)NN2CCN(C)CC2)cc(OC)c1OC	1.8	0.75	i	7	5.1	36	6.9
CCOc1ccc(OCCOCCOc2c(Cl)cccc2Cl)cc1	0.5	0.78	·	2	-0.1	-7	4.1
Cc1cc(C)n2ncc(/C(N)=N/OC(=O)c3ccccc3F)c2n1	7.8	0.68	i	-6	-6.4	2	-27
O=C(O)C1CCN(c2ccc(S(=O)(=O)N3CCC(C(=O)O)CC3)cc2[N+](=O)[O-])CC1	-4.2	0.69	i	-4	-0.6	0	0.0
O=C(O)CCc1ccc(-c2cccs2)n1CCc1ccccc1	2.1	0.67	i	1	-4.1	99*	-17
O=c1oc2ccccc2cc1-c1nc2c(s1)CCc1ccccc1-2	-2.0	0.69	·	-2	3.1	-33	-61
CCn1c(SCC(=O)O)nnc1-c1ccc(S(=O)(=O)N2CCCC2)cc1	2.0	0.66	i	-10	2.8	-4	2.5
O=[N+]([O-])c1ccc(N/N=C/c2c[nH]c3ccccc23)c(S(=O)(=O)Nc2ccc(Cl)cc2)c1	65*	·	·	-194	1.3	1	·

Some entries already given, showing only B2AR ag.
mol | B2AR ag
O=C(Cc1nc2ccccc2[nH]1)N/N=C/c1ccccc1 | -19
COc1cc(NC(=S)NN2CCN(C)CC2)cc(OC)c1OC | 7
CCOc1ccc(OCCOCCOc2c(Cl)cccc2Cl)cc1 | 2

In another format: six of the compounds above
Under each structure – HNF4A DNA FP | E coli growth | FGF22 binding | B2AR ag | LANA-H2B inh | ALR inh | UCH37 DUB inh
> COc1ccc(OC)c(S(=O)(=O)NCc2ccc(N3CCN(C)CC3)cc2)c1
  0.3 | 0.71 | i | 12 | -3.4 | -8 | 0.3
> COc1nc(N(C)S(=O)(=O)c2ccc(C)cc2)nc(C)c1Cl
  -1.8 | 0.71 | · | 3 | -0.7 | 5 | -1.3
> O=C1C2CC=CCC2C(=O)N1c1n[nH]c(Cc2ccccc2)n1 (centres undefined)
  -1.6 | 0.67 | i | -8 | 1.0 | 0 | 0.9
> O=C(Cc1nc2ccccc2[nH]1)N/N=C/c1ccccc1
  -1.4 | · | i | -19 | -4.8 | 1 | ·
> COc1cc(NC(=S)NN2CCN(C)CC2)cc(OC)c1OC
  1.8 | 0.75 | i | 7 | 5.1 | 36 | 6.9
> CCOc1ccc(OCCOCCOc2c(Cl)cccc2Cl)cc1
  0.5 | 0.78 | · | 2 | -0.1 | -7 | 4.1

New compounds follow.
SMILES	HNF4A DNA FP	E coli growth	FGF22 binding	B2AR ag	LANA-H2B inh	ALR inh	UCH37 DUB inh
O=C(c1ccco1)N(Cc1nc2ccccc2c(=O)[nH]1)C1CCCC1	0.7	0.7	·	-3	-20	-6	-0.4
Cn1c(Cn2c(=O)sc3ccccc32)nnc1SCc1cccnc1	-4.3	0.66	i	-14	-3.1	-6	0.3
COCCNCC(=O)C12CC3CC(CC(C3)C1)C2	-0.9	0.73	i	-4	-2.4	0	0.0
COc1ccccc1-c1cnn2c(NCCc3ccccc3)cc(C)nc12	-1.2	0.66	i	-8	1.4	-4	-92
N=c1c(C(=O)NC2CCCCC2)cc2c(=O)n3ccccc3nc2n1CC1CCCO1 (centres undefined)	-9.7	0.71	i	-10	0.5	-9	i
CCOc1ccc(NC(=O)[C@@H](NC(=O)c2ccccc2)[C@@H](C)CC)cc1	4.6	·	·	4	0.7	-2	3.4
Cc1ccc(C)c(NC(=O)c2cnn3ccccc23)c1	4.5	0.69	i	-13	0.4	-30	1.5
Cc1ccccc1/C=N/NC(=O)c1cccnc1	3.5	·	i	10	4.3	-7	·
CCc1nc(OCc2ccco2)c2sc3nc4c(cc3c2n1)COC(C)(C)C4	-1.6	0.75	·	2	-5.0	·	3.7
CCCCOc1ccccc1N1CCN(CCCN2C(=O)C3CCCN3C2=O)CC1 (centres undefined)	-3.6	0.71	i	-7	-4.4	58	-1.7
O=C(O)CC(c1ccccc1)N1C(=O)c2cccc([N+](=O)[O-])c2C1=O (centres undefined)	-0.8	0.67	·	1	-4.3	·	-6.2
OCCNc1nc(-c2cccnc2)nc2ccccc12	-6.8	0.69	·	-1	-0.3	1	3.9
O=[N+]([O-])c1cccc(/C=C/c2ccc3cccc(O)c3n2)c1	2.4	0.7	i	-6	-1.1	13	4.3
CCOc1cc(/C=C2/NC(=O)NC2=O)cc(Br)c1OCc1ccc(C(=O)O)cc1	-1.4	0.64	·	-4	-2.7	1	3.3
O=C(C1CCCN(S(=O)(=O)c2cccc3cccnc23)C1)N1CCN(c2ccccc2F)CC1 (centres undefined)	0.9	0.75	i	-6	-0.9	-5	1.7
Cc1ccc(C(=O)c2c3ccc([N+](=O)[O-])cc3[n+]([O-])n2CCCC(N)=O)cc1	1.4	0.62	i	-16	-6.2	-90	4.0
Cc1c([N+](=O)[O-])c(C(=O)Sc2ccc(Br)cc2)nn1C	-1.8	·	i	4	-2.6	99*	·
CCc1ccccc1NC1=NCC(=O)N1Cc1ccc(OC)cc1	2.6	0.73	·	5	1.6	5	2.2
COC(=O)c1ccc(OCc2nn[nH]n2)cc1	0.0	0.67	i	-7	4.0	0	0.5
Cc1ccc2nc(NCc3ccccc3)c(C=NCc3cccnc3)c(=O)n2c1	2.5	0.68	i	-10	-4.8	·	-13
O=C(CCCN1C(=O)c2ccccc2C1=O)NC1CCCCCC1	4.8	0.8	·	-1	-8.8	-6	4.6
N#Cc1cc2cc3ccccc3nc2n2c(=O)c3ccccc3nc12	114	0.72	i	-9	-3.7	·	-0.1
COc1cccc(CNCc2ccco2)c1O	0.2	0.7	·	-1	·	·	5.9
COc1ccccc1C(CNC(=O)c1ccc(NS(=O)(=O)c2ccc3c(c2)OCCO3)cc1)N(C)C (centres undefined)	2.8	0.67	·	0	1.4	-7	2.4
CCC(C)NC(=S)Nc1ccccc1OC (centres undefined)	1.0	0.71	·	8	7.5	-3	2.7
CCC(C)(C)NC(=O)C(Sc1ccccc1)c1ccccc1 (centres undefined)	-4.2	0.68	i	2	-1.1	1	1.0
Cc1ccc(S(=O)(=O)NCCCNc2ccc([N+](=O)[O-])cc2)cc1	1.9	0.72	i	13	1.6	-1	9.1
Nc1c(Cl)ncnc1N/N=C/c1ccnc2ccccc12	1.9	·	·	0	-4.6	43	·
CCOC(=O)c1ccc(COC(=O)c2ccc(-c3nnc(-c4ccccc4)o3)cc2)o1	1.7	0.77	·	4	-9.1	-3	-1.9
CC(/C=N/N1C(=O)CSC1=S)=C\c1ccccc1	0.8	·	i	0	3.6	33	·
CNC(=O)Nc1ccc2snnc2c1	-0.2	0.69	i	-2	3.3	52	-7.4
O=S1(=O)CCO[C@H]2Cc3ccccc3[C@H]2N1Cc1ccccc1Br	-5.9	0.8	i	1	1.6	-4	5.1
COc1cc2nc(-c3ccccc3)nc(N3CCCC3)c2cc1OC	·	0.8	·	·	-11	·	-14
O=C(O)C(Cc1c[nH]c2ccccc12)NS(=O)(=O)c1ccccc1 (centres undefined)	-0.8	0.64	·	3	-1.7	3	0.7
Cc1cc(Cl)ccc1OC(C)C(=O)NC(C)C1CCCO1 (centres undefined)	-3.1	0.64	i	-4	0.7	3	0.1
COc1ccc(CN2CCc3ccc(NC(=O)c4ccncc4)cc3C2)c(F)c1	-1.3	·	i	-4	-8.6	-17	·
CC(=O)c1cccc(OC(=O)C2=CC=CN3CCS(=O)(=O)N=C23)c1	3.0	0.71	i	0	47*	9	-153
O=C(Cn1cc(F)c(=O)[nH]c1=O)NCCO	-0.1	0.71	i	2	-3.2	-5	0.2
CCC(=O)c1ccc(N2CCN(C(=O)c3cccc(F)c3)CC2)c(F)c1	2.7	0.7	i	2	-8.2	-3	1.4
CC(=O)Nc1cccc(OCC(=O)/C=C2\N(C)c3ccccc3C2(C)C)c1	13	0.66	i	-9	2.5	·	-33
C/C=C\C=C\C(=O)N1CC2(CC(c3cccc(NC(=O)CC)c3)=NO2)C[C@H]1C(N)=O (some centres undefined)	-8.5	·	i	4	-3.4	0	2.5
O=C(Nc1cccc([N+](=O)[O-])c1)C1CC(=O)N(Cc2ccccc2)C1 (centres undefined)	1.4	0.68	i	4	0.0	-1	4.2
CCCC1(c2ccccc2)NC(=O)N(CC(=O)NCc2ccc(C)cc2)C1=O (centres undefined)	3.7	0.7	i	1	-4.7	-14	1.5
Cc1cc[n+](CC(=O)Nc2cc(C(F)(F)F)ccc2Cl)cc1	2.9	0.72	·	-7	-5.0	-3	2.1
CCOc1cccc(NC(=O)C2CC(=O)N(c3ccc(F)cc3)C2)c1 (centres undefined)	4.6	0.73	i	0	-1.3	·	-1.8
Cc1ccsc1CNC(=O)c1c(-c2ccccc2)noc1C	0.0	0.68	i	-7	-0.9	-1	2.9
NNC(=O)C(=O)NCCCN1CCOCC1	-0.7	0.66	i	5	-8.1	16	-1.0
COc1ccccc1N1CCN(C(=O)c2cc(=O)c3cc(C)cc(C)c3o2)CC1	0.5	0.65	i	19	-1.2	-15	1.3
COc1ccc(-n2ccc(=O)c3c2CCCC3=O)cc1	2.3	0.67	·	-1	2.8	15	-0.5
CC(=O)c1ccc(NC2=C(N3CCOCC3)C(=O)c3ccccc3C2=O)cc1	-0.8	0.71	·	-13	-5.7	33	32*
S=c1[nH]nc(C2CCCCC2)o1	-2.3	0.69	i	0	-1.6	12	1.4
Cc1c(C(=O)Nc2c(C)n(C)n(-c3ccccc3)c2=O)oc2c(Cl)cccc12	-6.7	0.7	i	1	-4.7	1	4.0
Cc1nn(-c2ccc(F)cc2)c(Cl)c1C(=O)NCC1CCCO1 (centres undefined)	3.0	0.67	i	1	1.1	4	1.0
CCCN1CNC(=S)N(Cc2ccccc2)C1	-1.7	0.66	·	0	-2.5	-7	1.0
CCn1c(SCC(=O)N/N=C/c2ccc(C)o2)nnc1-c1ccccc1	-3.4	·	·	-7	3.5	-15	·
CN(CCc1cnn(C)c1)Cc1nc(CC2CC2)no1	0.4	0.7	i	13	-2.5	·	2.4
O=C(NNC(=O)c1ccccc1F)c1ccc(S(=O)(=O)N2CCCC2)cc1	1.6	0.72	i	4	-2.8	9	3.4
CCOC(=O)C1CCC(CN(Cc2ccccc2)S(=O)(=O)c2ccc([N+](=O)[O-])cc2)CC1 (centres undefined)	-0.3	0.67	i	-3	-3.2	-7	5.7
O=C(Nc1ccc(N2CCN(C(=O)c3ccccc3F)CC2)cc1)c1ncn[nH]1	3.9	0.69	i	-5	-2.8	·	-1.3
CC1(c2nnc(-c3ccccc3)o2)CC(c2ccc(F)cc2)=NO1 (centres undefined)	3.1	0.62	i	-4	2.1	13	1.7
